Compound activity as filed in PubChem.
CBX7 AlphaScr: CBX7 inhibition, primary AlphaScreen; AlphaScreen His6-CBX7 / biotin-H3K27me3 peptide binding; hits give low values; normalised signal (fraction of DMSO) (concentration not given with the values); hit rate 1.1% among 66,000; AID 1224903; in the data active = normalised signal below about 0.5;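 note: 100 nL library stock added to about 20 µL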
Target sequence (O95931 whole entry, looked up): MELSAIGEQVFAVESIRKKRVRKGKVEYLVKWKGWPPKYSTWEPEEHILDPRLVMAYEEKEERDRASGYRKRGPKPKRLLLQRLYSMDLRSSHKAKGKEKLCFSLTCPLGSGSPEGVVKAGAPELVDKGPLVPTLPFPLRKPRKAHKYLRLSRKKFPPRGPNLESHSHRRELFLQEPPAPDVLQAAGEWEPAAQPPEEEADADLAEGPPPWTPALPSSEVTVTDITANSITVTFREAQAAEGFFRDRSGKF
CBX7 AlphaScr z-score: further read-out of CBX7 AlphaScr, marked with its call; z-score; measured here: z-score of CBX7 signal; some inactives read as strong as hits; reference of the scale not given here;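 same signal on another scale; lower means less binding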
* marks the source's active call; other numbers are inactive results. A portion of the library, so the mix of outcomes need not match the whole.

molecule,CBX7 AlphaScr z-score,CBX7 AlphaScr
COc1ccc(S(=O)(=O)N2CCCCC2c2cccnc2)cc1 (stereo not given),-0.91,0.96
Cc1cccc2nc(-c3cccc(NS(=O)(=O)c4ccccc4)c3)cn12,1.5,1.1
CCCCNC(=O)c1cc(-c2cccnc2)nc2ccc(S(=O)(=O)N3CCCCCC3)cc12,1.7,1.1
CCC1CCCCN1C(=O)c1cc2n(n1)C(C(F)(F)F)CC(c1ccc(Cl)c(Cl)c1)N2 (stereo not given),0.61,1.1
CCCCNS(=O)(=O)c1ccc2nc(-c3cccnc3)cc(C(=O)NCC(OC)OC)c2c1,-0.33,0.98
O=C(CCc1nc(-c2cccs2)no1)Nc1ccc(F)cc1Cl,-1.7,0.94
O=C(Nc1cccc(F)c1)c1cccnc1NCCc1ccccc1,4.9,1.5
CCn1c(C(=O)N2CCN(c3ccccc3F)CC2)cc2sc(Cl)cc21,-0.89,0.95
O=C(c1cnn(-c2ccccc2)c1-n1cccc1)N1CCC(C(=O)N2CCC3(CC2)OCCO3)CC1,0.48,1
Cc1ccc2nc(-c3ccsc3)c(Nc3ccc(Cl)cc3)n2c1,-1.1,0.92
COc1ccc(C(O)Cc2nc3ccccc3n2C)cc1OC (stereo not given),1.7,1.1
O=C(NCc1ccccn1)c1ccc2c(c1)ncn2-c1ccc(OCc2ccccc2)cc1,-7.6,0.69
Cc1ccc(C)c(NC(=O)C(=O)NCc2ccccc2)c1,1.2,1.1
Cc1cccc(N2CCN(C(=O)Cc3c(C(=O)O)[nH]c4ccc(Cl)cc34)CC2C)c1 (stereo not given),-0.38,0.99
CCc1ccc(NC(=O)CN(c2ccc(OC)cc2)S(=O)(=O)c2c(C)nn(C)c2C)cc1,0.74,1.1
CCOCCCNC(=O)CSCc1nc(-c2ccc(OCC)cc2)oc1C,-0.61,0.96
Cc1ccc(-c2nc(-c3c[nH]c4ccccc34)[nH]c2-c2ccc(C)cc2)cc1,-0.62*,0.37*
CC1CN(Cc2c(O)ccc3c(-c4ccccc4)cc(=O)oc23)CC(C)O1 (stereo not given),1.5,1.1
Cc1ccc(-c2nc(C(=O)Nc3cccnc3)c(C)o2)cc1,-1.1,0.9
CCn1c(CNC(=O)c2ccccc2)nc2ccccc21,1.7,1.2
O=C1C(c2ccc(F)cc2)N(CCc2ccc(Cl)cc2)C(=O)CN1C1CCCCCC1 (stereo not given),1.1,1.1
Cc1ccc(-c2nc(C(=O)NCc3cccnc3)c(C)o2)cc1,-0.48,0.98
CC(=O)Nc1ccc(NC(=O)CCc2c[nH]c3ccccc23)cc1,-2.8,0.77
CCN(CC)c1cc(C)c2cc(NC(=O)c3ccccc3C)ccc2n1,1.1,1
CCOC(=O)c1cc(-c2ccccc2)n(CCC(=O)N(C)Cc2ccccc2)c1,-3.3,0.77
COc1cc2[nH]c(=O)n(CCCC(=O)N3CCN(Cc4ccccc4)CC3)c(=O)c2cc1OC,0.42,1
COc1ccc(-c2nc3nc(C)cc(C)n3c2Nc2ccccc2C)cc1,0.4,1
CC(C)NC(=O)Cn1c2c(c(-c3ccccc3Cl)cc1=O)CCC2,0.069,1
COc1cccc(Nc2ncccc2C(=O)Nc2ccccc2)c1,-3,0.92
CCN(CCCNC(=O)c1cc(-c2ccncc2)nc2ccccc12)c1cccc(C)c1,-1.7,0.74
Cc1cccc(N(CC(O)CN2CCCC2)S(=O)(=O)c2ccccc2)c1 (stereo not given),1.3,1
Cc1cccc(S(=O)(=O)Nc2cccc(-c3cn4cccc(C)c4n3)c2)c1,0.087,1
COc1ccc2cc(CCNC(=O)c3ccc(C)cc3)c(=O)[nH]c2c1,1.3,1
CCN(CC)c1cc(C)c2cc(NC(=O)c3ccc(OC)cc3)ccc2n1,-0.74,0.99
Cc1cc(C)n2c(Nc3cccc(C(F)(F)F)c3)c(-c3ccsc3)nc2n1,0.36,1.1
CCOc1ccccc1N1C(=O)C2C3C=CC(C3)C2(C)C1=O (stereo not given),-1.6,0.88
O=C(c1ccc2c(c1)OCO2)c1cn(Cc2ccc(F)cc2)c2ccccc2c1=O,-2.5,0.74
Cc1cccn2cc(-c3ccc(NC(=O)Cc4ccccc4)cc3)nc12,-1,0.98
COCCCNC(=O)c1cn(-c2ccc(C)c(C)c2)c(=O)c2ccccc12,1.2,1.1
CCn1c(SCC(=O)Nc2c(C)cccc2C)nnc1-c1ccc2[nH]c(C)c(C)c2c1,1.7,1.1
CCOc1ccccc1C(=O)Nc1cc(C)ccc1C,0.32,1.2
COc1ccccc1Nc1cc(C(=O)NCC(OC)OC)c2ccccc2n1,0.12,1.1
CCN1CCCC1CNC(=O)C1CCN(c2nnc(-n3cccc3)s2)CC1 (stereo not given),8.8,1.8
CN(Cc1ccccc1)S(=O)(=O)c1ccc2c(c1)CCC(=O)N2,-0.37,0.98
COc1ccc(CCNC(=O)CCc2c(C)nc3c(-c4ccccc4)c(C)nn3c2C)c(OC)c1,0.99,1.1
O=C(Nc1ccccc1)N1CCCCC1c1cccnc1 (stereo not given),0.76,1.1
COc1ccc(-c2cc(C(F)(F)F)nc(N3CCC(C)CC3)n2)cc1,9.4,1.9
CCOC(=O)c1c(NC(=O)COc2cc(C)c(Cl)c(C)c2)sc2c1CCCC2,-0.0021,1
Cc1ccc(Nc2ncc(C(=O)Nc3ccc4c(c3)OCCO4)c3ccccc23)cc1Cl,0.2,1
Fc1cccc(-c2nc3cc(C(F)(F)F)cc(Cl)c3nc2-c2cccc(F)c2)c1,-0.11,0.98

(next part)
molecule,CBX7 AlphaScr z-score,CBX7 AlphaScr
CCC1=Nc2cc(C(=O)NCCCN(C)C3CCCCC3)ccc2Sc2ccccc21,-0.23,0.9
CCOC(=O)c1[nH]c2c(c1-c1ccccc1)C(=O)CC(c1ccc(OC)c(OC)c1)C2 (stereo not given),-1.6,0.76
COc1ccc(S(=O)(=O)NCCc2c(C)[nH]c3ccc(C)cc23)c2ccccc12,-1.9,0.8
CCCCOc1cccc(C(=O)Nc2ccc(-c3nc4ccccc4s3)c(O)c2)c1,2.7,1.2
O=C(NCC1CCCO1)C1CCC(=O)N1Cc1ccc(F)cc1 (stereo not given),-0.41,0.99
COc1ccc2c(c1)CCc1c(C(=O)NCCc3ccc(OC)c(OC)c3)noc1-2,0.2,1
O=C(NCc1ccc2c(c1)OCO2)C1CCC(=O)N1C1CCCCC1 (stereo not given),1.8,1
Cc1ccc(C)c(NC(=O)C2CCCN(S(=O)(=O)c3cccnc3)C2)c1 (stereo not given),0.0053,1
Cc1ccc(C)c(NC(=O)C(=O)NCc2ccccn2)c1,1.2,1
Cc1ccc(-c2nc3ncccc3o2)cc1NC(=O)c1cccc(Br)c1,0.78,1.1
CCCCNC(=O)Cn1ncc2ccsc2c1=O,0.13,1
c1ccc(CSc2nnc(-c3ccncc3)o2)cc1,0.4,1
CCn1c(CNC(=O)c2ccc(OC)c(OC)c2)nc2ccccc21,-0.2,0.99
CCN(CC)S(=O)(=O)c1ccc2c(c1)N(CC(=O)NCc1ccccc1OC)C(=O)CO2,1.4,1.1
Cc1ccc2nc(-c3ccccn3)c(Nc3ccccc3C)n2c1,-21*,0.0067*
Nc1nnc(-c2cc3ccccc3oc2=O)s1,0.08,1
O=C1c2cccnc2C(Nc2ccc(Cl)cc2)N1Cc1ccc(F)cc1 (stereo not given),-8.1*,0.37*
COc1cc2c(cc1OC)C(C(=O)Nc1ccc(F)cc1)C(c1cccnc1)N(C)C2=O (stereo not given),3.2,1.2
Cc1sc2nc(Cc3ccccc3)nc(Nc3ccc4c(c3)OCCO4)c2c1C,-0.24,0.76
CC1(C)Nc2ccccc2N(CC(=O)N2CCOCC2)C1=O,1.2,1
FC(F)(F)c1cccc(Nc2nc(-c3ccccc3Cl)nc3ccccc23)c1,-1,0.91
Cc1ccc(-n2c(Cc3cccn3C)nnc2SCC(=O)Nc2cccc(C)c2)cc1,-4.9,0.79
O=C(Nc1nnc(N2CCCCCC2)s1)Nc1ccccc1C(F)(F)F,-0.79,0.8
O=C(Nc1ccccc1)c1ccc(NC2=NC3CS(=O)(=O)CC3S2)cc1 (stereo not given),-0.19,0.99
Cc1ccc(NC(=O)c2csc3c2CCCC3)c(C)c1,0.13,1

One compound at a time, as listed above. Order of values: CBX7 AlphaScr z-score	CBX7 AlphaScr
Listed for O=C(NCC1CCCO1)C1CCC(=O)N1Cc1ccc(F)cc1 (stereo not given) : -0.41	0.99
Listed for Cc1ccc(C)c(NC(=O)C(=O)NCc2ccccn2)c1 : 1.2	1
Listed for O=C1c2cccnc2C(Nc2ccc(Cl)cc2)N1Cc1ccc(F)cc1 (stereo not given) : -8.1*	0.37*
Listed for COc1ccc2c(c1)CCc1c(C(=O)NCCc3ccc(OC)c(OC)c3)noc1-2 : 0.2	1
Listed for O=C(Nc1nnc(N2CCCCCC2)s1)Nc1ccccc1C(F)(F)F : -0.79	0.8

Additional compounds.
molecule,CBX7 AlphaScr z-score,CBX7 AlphaScr
COc1ccccc1CNC(=O)CCn1c(=O)[nH]c2ccccc2c1=O,-0.1,0.99
CN1C(=O)CSc2ccc(NC(=O)NCCCc3ccccc3)cc21,-0.32,0.99
COc1ccc(NC(=O)N(Cc2ccc(C)cc2)Cc2ccccn2)c(OC)c1,-0.29,0.7
CCC1c2ccc(C)n2CCN1C(=O)Nc1ccc(F)cc1 (stereo not given),-1.2,0.97
Oc1ccc(Nc2nc3nonc3nc2Nc2ccccc2I)cc1,0.36,1
O=C(CN1CCCCCC1)Nc1nc(-c2ccccc2)cs1,-0.58,0.98
O=C(CCNC(=O)Cn1ccc2ccccc2c1=O)NCc1cccnc1,0.94,1
CC1CCCC(NC(=O)COc2ccc3c(c2)C(=O)CC(C)(C)O3)C1C (stereo not given),-1.3,0.83
Brc1ccc(OCc2nc(-c3ccncc3)no2)cc1,0.18,1.1
O=c1c2c(nc(NCCCO)n1Cc1ccccc1)-c1ccccc1CC21CCCCC1,2,1.2
COc1cc(OC)cc(-c2nc(-c3ccccc3)no2)c1,0.064,1.1
O=C(CCN1C(=O)COc2ccccc21)NCCN1CCC(Cc2ccccc2)CC1,-0.79,0.97
Cc1cc(NC(=O)c2ccc3c(=O)n4c(nc3c2)CCCCC4)no1,-0.21,1
O=C(NCc1ccc2c(c1)OCO2)c1ccc2c(c1)N(Cc1ccccc1)CCS2,-0.31,0.76
CCOc1ccc(NC(=O)c2cc(-c3cccs3)nc3ccccc23)cc1,0.08,1
Cc1nc2c(C(=O)N3CCCC3)cnn2c(C)c1Cc1cccc(Cl)c1,-0.59,0.98
Cc1ccc2oc(-c3ccc(Cl)c(NC(=O)c4cc5ccccc5o4)c3)nc2c1,1.8,1.1
Cc1onc(-c2c(Cl)cccc2Cl)c1C(=O)NC(C)(C)CO,0.02,1
CCOc1ccc2nc(NC(=O)C3CCN(S(=O)(=O)c4cccc5cccnc45)CC3)sc2c1,-0.66,0.95
COc1cc(C(NC(=O)c2ccc(-n3cnnn3)cc2)C(=O)Nc2c(C)cccc2C)ccc1O (stereo not given),0.089,1
Cc1ccccc1-n1nc2c(c1NC(=O)c1cccc(Cl)c1)CS(=O)(=O)C2,-1.2,0.94
COc1ccc(N2CCN(C(=O)C3c4ccccc4C(=O)N4CCc5ccccc5C34)CC2)cc1 (stereo not given),0.12,1
Cc1noc(C(=O)Nc2ccccc2C(F)(F)F)c1Cl,-0.89,0.95
CC(=O)N1CCN(CC(O)COc2ccc(Br)cc2)CC1 (stereo not given),-1.1*,0.46*
COc1ccc(CCC(=O)Nc2ccc(-c3noc(-c4cccc(OC)c4)n3)cc2)cc1,-1,0.74
Cc1nc(Nc2ccc(Oc3ccccc3)cc2)c2c3c(sc2n1)CCCC3,-2.2,0.92
CCCN1C(=O)C(O)(CC(=O)c2ccc(C)cc2)c2cc(Br)ccc21 (stereo not given),-0.12,0.89
O=C(CCc1nnc2ccc(N3CCOCC3)nn12)Nc1cccc(C(F)(F)F)c1,-0.51,0.97
COc1ccc(-c2csc(N3CCn4c5c(c6cc(C)ccc64)CCCC53)n2)cc1 (stereo not given),-1.2,0.95
O=C(NCCCN1CCCCC1)C1CCC(=O)N1CCc1ccccc1 (stereo not given),0.51,1
O=C(CSc1nnc(-c2ccc(F)cc2)o1)N1CCCCC1,2.4,1.2

Sorted by formula weight (low to high): 3 of the compounds above
molecule,CBX7 AlphaScr z-score,CBX7 AlphaScr
O=C(NCCCN1CCCCC1)C1CCC(=O)N1CCc1ccccc1 (stereo not given),0.51,1
COc1ccc(-c2csc(N3CCn4c5c(c6cc(C)ccc64)CCCC53)n2)cc1 (stereo not given),-1.2,0.95
O=C(CCc1nnc2ccc(N3CCOCC3)nn12)Nc1cccc(C(F)(F)F)c1,-0.51,0.97
